# High-throughput results: PubChem BioAssay, several laboratories
# MT1-MMP promoter: MT1-MMP gene expression reporter suppression – cell-based, luciferase reporter, luminescence (AID 618); MT1-MMP promoter luciferase reporter cells, luminescence; calls from a first round at 10 µM; hits with a dose series show EC50 in µM; hit rate 0.62% among 87,000;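 active means over half of the reporter light lost at 10 µM or EC50 under 50 µM; inactive means the rest and hits that failed the dose series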;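 further: actives suppress MT1-MMP promoter-driven transcription so potencies describe inhibitors; HT1080 fibrosarcoma cells; overnight exposure; toxic or luciferase-blocking compounds were not removed from the actives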
# WNV protease inh: blocks West Nile virus NS2B-NS3 protease activity | P06935 | WNV NS2B-NS3 protease, fluorogenic substrate Ex360/Em465; hits give low values | z-score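 (tested at a level between 10 and 100 µM)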 | hit rate 0.18% among 65,000;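 active means z-score at -3 or under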;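 further: score is relative to mean and spread of the compound wells of a plate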
# Target sequence (P06935 1371-1501 limits assumed): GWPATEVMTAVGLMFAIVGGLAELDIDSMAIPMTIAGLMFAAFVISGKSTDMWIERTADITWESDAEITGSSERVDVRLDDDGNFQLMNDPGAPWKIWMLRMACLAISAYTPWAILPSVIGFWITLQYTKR
# Target sequence (P06935 1502-1679 limits assumed): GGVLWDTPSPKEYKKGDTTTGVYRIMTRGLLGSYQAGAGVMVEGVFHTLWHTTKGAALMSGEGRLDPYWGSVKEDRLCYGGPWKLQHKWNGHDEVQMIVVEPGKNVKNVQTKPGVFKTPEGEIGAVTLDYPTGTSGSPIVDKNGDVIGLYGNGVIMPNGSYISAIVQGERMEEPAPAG
# Hsc70 ATP site: Hsc70 inhibitors, probe displacement, primary screen, biochemical, fluorescence polarization (AID 568). 83,000 tested, under 10 active. Hsc70 fluorescence polarization, probe displacement; higher % means a stronger effect; strong numbers were not always called active. one-dose displacement, % at 20 µM; IC50 in µM for titrated hits;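 active means displacement above 50% without optical interference and an IC50 on retest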;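 further: ATPase domain with a fluorescein-tagged ATP probe; 0% = vehicle and 100% = excess ADP; read after one hour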
# Active calls of the source: *; i = inactive; nt = not tested or not shown. An excerpt, so the mix of outcomes need not match the whole.
entry	Compound	MT1-MMP promoter	WNV protease inh	Hsc70 ATP site
1	COC(=O)c1cccc(Oc2nc(N3CCOCC3)nc(N3CCOCC3)n2)c1	i	-0.54	9.0%
2	CCCCCCC(=O)N(O)C1CC(=O)N(c2ccccc2)C1=O (stereo unspecified)	i	-0.19	5.4%
3	O=C(CCS(=O)(=O)c1cccc2nonc12)NCCc1ccccc1Cl	i	0.39	7.0%
4	Cc1nn2c(N3CCN(C4CCCC4)CC3)cc(C(C)(C)C)nc2c1-c1ccccc1	i	nt	-5.5%
5	Cc1cc2ncn(C(=O)N3CCCC3)c2cc1C	i	nt	-3.5%
6	O=C(CSc1nnc(Cc2ccccc2)o1)NCc1ccco1	i	0.35	0.9%
7	Cc1cc(C)n(C(=O)CN2C(=O)COc3ccccc32)n1	i	-1.1	3.1%
8	O=C(Nc1ccc(-c2cn3ccsc3n2)cc1)C1CCCC1	i	-1.3	9.1%
9	COC(=O)Cc1cc(=O)[nH]c(/N=C(\N)Nc2ccc(C)cc2C)n1	i	-0.87	2.8%
10	Cc1ccc(S(=O)(=O)C2(C(=O)Nc3ccc(F)cc3)CC2)cc1	i	0.59	-4.0%
11	COc1ccc(OC)c(NC(=O)CCN2CCN(c3ccccc3F)CC2)c1	i	0.98	2.2%
12	COc1ccc(CCNC(=O)CCSc2nc(-c3ccco3)cc(C(F)(F)F)n2)cc1	i	-0.04	-4.8%
13	Cc1nc2cc(-c3ccccc3)ccc2o1	i	-0.28	-3.8%
14	Nc1ncc2c(n1)CC(c1ccco1)CC2=O (stereo unspecified)	i	0.74	-2.7%
15	Cc1ccc(C(c2nnnn2C(C)(C)C)N2CCN(C3CCCC3)CC2)cc1 (stereo unspecified)	i	-0.03	0.2%
16	C=CCn1cnc2c(NCc3ccccc3)ncnc21	i	0.52	-1.9%
17	Cc1ccc(C(=O)N2CCN(c3ncccn3)CC2)o1	i	nt	-6.9%
18	CCOc1ccc(N2Cc3ccccc3C2)cc1	i	-0.69	9.1%
19	CCN(C(=O)CCS(=O)(=O)c1ccc(Br)cc1)c1ccc2c(c1)OCO2	i	-0.22	14%
20	COc1ccc(-n2c(SCCC(=O)O)nnc2-c2ccncc2)cc1	i	-0.98	-1.9%
21	CC1=C(C)CC(C(=O)NCCc2ccccc2)C(C(=O)O)C1 (stereo unspecified)	i	nt	-2.5%
22	CCOc1ccc(N2C(=O)CC(n3nc(C)cc3C)C2=O)cc1 (stereo unspecified)	i	-0.43	5.7%
23	C=CCC(NC(C)c1ccccc1)c1ccco1 (stereo unspecified)	i	nt	-3.1%
24	CCOc1ccccc1C(=O)Nc1ccc(-c2nnc(-c3ccc(C)cc3)o2)cc1	i	-0.04	0.2%
25	CC(Sc1nnc(Cn2c(=O)sc3ccccc32)n1C)c1ccccc1 (stereo unspecified)	i	0.01	-1.5%
26	CN(CC(=O)NC1CCCCCCC1)S(=O)(=O)c1cccc2cccnc12	i	-0.48	2.4%
27	O=C(Nc1cccc(-c2nc3ncccc3o2)c1)c1cc2ccccc2o1	i	-0.05	3.2%
28	O=C1c2ccccc2N2C(=O)c3ccccc3[C@H]2N1c1ccccc1	i	nt	0.7%
29	CCOc1cc(S(=O)(=O)N2CCN(c3ccc(F)cc3)CC2)c(OCC)cc1-n1cnnn1	i	2	-6.2%
30	CC1Cc2ccccc2N1C(=O)Cn1c(=O)oc2cc(S(=O)(=O)NC3CCCC3)ccc21 (stereo unspecified)	i	1.2	3.3%
31	CCn1c2ccccc2c2nc3cc(S(=O)(=O)N4CCOCC4)ccc3nc21	i	-0.34	-0.4%
32	CCOC(=O)CN(C(=O)CSc1nnc(Cc2ccccc2)n1-c1ccc(C)cc1)c1ccccc1	i	nt	3.6%
33	Cc1ccc2nc(C(O)C(O)c3nc4ccc(C)cc4[nH]3)[nH]c2c1 (stereo unspecified)	i	0.31	0.1%
34	CCN(CC)C(=O)CSc1nnc(-c2ccco2)n1Cc1ccco1	i	-1	0.5%
35	CCOc1ccc(CNC(=O)C2CCN(S(=O)(=O)CC)CC2)cc1OC	i	-1.1	2.8%
36	CC(C)(C)Nc1nc(N2CCCC2)nc(N2CCCC2)n1	i	nt	3.6%
37	COc1ccc(C)cc1-n1nnnc1SCC(=O)c1cc(C)n(Cc2ccco2)c1C	i	-1.4	-9.6%
38	COc1ccccc1NC(=O)CN1CCN(CC(=O)Nc2cc(NC(C)=O)ccc2OC)CC1	i	0.41	-0.2%
39	CCc1cccc(OCC(=O)Nc2ccc(S(=O)(=O)Nc3onc(C)c3C)cc2)c1	i	0.41	-1.2%
40	CCn1c(SCC(=O)Nc2ccccc2)nc2c1c(=O)n(C)c(=O)n2C	i	nt	-1.6%

# Molecules shown so far that have a COOH group:
entry	Compound	MT1-MMP promoter	WNV protease inh	Hsc70 ATP site
20	COc1ccc(-n2c(SCCC(=O)O)nnc2-c2ccncc2)cc1	i	-0.98	-1.9%
21	CC1=C(C)CC(C(=O)NCCc2ccccc2)C(C(=O)O)C1 (stereo unspecified)	i	nt	-2.5%

# More records follow.
entry	Compound	MT1-MMP promoter	WNV protease inh	Hsc70 ATP site
41	CCN(CC)CC(O)COc1ccccc1C(=O)CCc1ccccc1 (stereo unspecified)	i	-1.1	-3.3%
42	CCn1c(-c2ccsc2)nc2c1c(=O)[nH]c(=O)n2Cc1ccccc1	i	0.11	-4.6%
43	CC(=O)Nc1ccc(N2C(=O)CSC2c2ccc(F)cc2)cc1 (stereo unspecified)	i	0.62	4.8%
44	COc1ccc(-c2nn3c(-c4ccccc4)nnc3s2)cc1OC	i	-0.44	-5.8%
45	COC(=O)c1ccsc1NC(=O)CSc1nnnn1Cc1ccccc1	i	-0.7	-0.7%
46	Cc1ccc2c(c1)c(-c1ccccc1)nc1nncn12	i	0.68	4.8%
47	Brc1ccc(-c2nnc3n2-c2ccccc2CC3)cc1	i	-0.06	-0.7%
48	CCCCCn1c(=O)c(C(=O)c2ccccc2)nc2ccccc21	i	nt	-1.5%
49	O=C1CCN=C(Nc2ccc(F)cc2)N1Cc1ccccc1	i	-0.94	1.3%
50	Cc1cccc(OCC(=O)Nc2ccc(N3CCCC3)cc2)c1C	i	-0.93	-5.7%
51	Cn1ccnc1SCC(=O)Nc1ccc(Oc2ccccc2)cc1	i	-0.92	5.1%
52	CN(C)S(=O)(=O)N1CCN(S(=O)(=O)c2ccc3ccccc3c2)CC1	i	nt	0.8%
53	Cc1nc2scc(-c3ccccc3)c2c(=O)n1N	i	-1.4	5.4%
54	C=CCn1c(COc2ccccc2)nnc1SCc1ccc(C#N)cc1	i	-0.77	-1.8%
55	Cc1ccc(C)c(CN2CCNC2=O)c1	i	0.15	-10%
56	CCOc1ccc2[nH]c(C)c(CN(C)C)c(=O)c2c1	i	-1.1	2.8%
57	CN1C(=O)C2(c3ccccc31)C1CCCC=C1C(C#N)=C(N)C2(C#N)C#N (stereo unspecified)	i	-0.94	2.0%
58	Cc1ccc(N2C(=O)C3ON(c4ccccc4)C(c4ccncc4)C3C2=O)c(C)c1 (stereo unspecified)	i	-0.38	-5.1%
59	NC(=O)C1(N2CCCCC2)CCN(C(=O)CSc2nc3ccccc3[nH]2)CC1	i	0.72	-3.7%
60	O=C(NCC1CCCO1)c1ccc(CS(=O)(=O)c2ccc(Br)cc2)o1 (stereo unspecified)	i	-0.6	137%
61	Cc1ccc(N(CN2C(=O)C3CC=CCC3C2=O)C(=O)c2ccco2)cc1Cl (stereo unspecified)	i	0.86	2.2%
62	CCn1c(SCCC(=O)Nc2ccccc2)nnc1-c1ccc(OC)cc1	i	-0.02	5.9%
63	CC(=O)N1CCc2cc(S(=O)(=O)NCCC(=O)Nc3cccc(C)c3C)ccc21	i	-2.4	3.9%
64	O=C(OCCCCN1C(=O)c2ccccc2C1=O)c1ccc(S(=O)(=O)N2CCCC2)cc1	i	-0.94	1.3%
65	CCOc1cc(S(=O)(=O)N(CC)CC)c(OCC)cc1-n1cnnn1	i	nt	4.1%
66	CC(C)(C)NC(=O)C1CC(=O)OC1(C)C (stereo unspecified)	i	-0.17	-1.4%
67	Cc1nnc(-n2ncc(C#N)c2N)c2nn(-c3ccccc3F)c(C)c12	i	nt	-6.1%
68	C=C(C)c1cccc(C(C)(C)NC(=O)N2CCCC2)c1	i	nt	-0.6%
69	Cc1ccc(S(=O)(=O)N(CC(O)CN2CCCCC2)c2ccccc2)cc1 (stereo unspecified)	i	-0.67	3.4%
70	CCOC(=O)c1oc2ccccc2c1NC(=O)c1ccccc1OC	i	-0.93	-4.2%
71	CCOc1ccc(NC(=O)Nc2ccc3c(c2)nnn3C)cc1	i	0.53	2.9%
72	CCOCCSc1nnc2nc(C)cc(C)n12	i	-1.2	1.7%
73	Cc1cccc(NC(=O)CSc2nnc(C)n2Cc2ccccc2)c1	i	nt	1.2%
74	CCOC(=O)c1c(C)[nH]c(C(C)=O)c1C	i	1.9	2.2%
75	Cc1ccc(OCc2nnc(SCC(=O)Nc3cccc4ccccc34)n2-c2ccccc2)cc1	i	nt	1.2%
76	O=C(Nc1cccc(Cl)c1)Nc1ccccc1C(=O)NCc1ccco1	i	nt	1.7%
77	CCCOC(=O)C1=C(C)NC2=C(C(=O)CCC2)C1c1cccc(OC)c1OC (stereo unspecified)	i	0.13	-1.0%
78	Cc1ccnc(NS(=O)(=O)c2ccc(NS(=O)(=O)Cc3ccccc3)cc2)n1	i	nt	-0.6%
79	CCc1ccc(NC2=CC(=O)CC(c3ccco3)C2)cc1 (stereo unspecified)	i	-1.2	2.1%
80	COc1ccccc1Nc1nc(N)nc(-c2cc3ccccc3o2)n1	i	1.4	-1.1%
81	COc1ccc(C(=O)c2cn[nH]c2-c2cc(Cl)ccc2O)cc1	i	2	6.0%
82	COc1cccc(CNC(=O)C2CCN(S(=O)(=O)c3cccc4cccnc34)CC2)c1	i	2.1	3.1%
83	Cc1cc(NC(=O)CSc2nc3c(c(=O)n(C)c(=O)n3C)n2C(C)C)no1	i	0.49	1.8%
84	CC(N)C12CC3CC(C1)CC(C(C)N)(C3)C2 (stereo unspecified)	i	-0.79	1.1%
85	O=S(=O)(NCC1CC1)c1cccc(S(=O)(=O)N2CCCC2)c1	i	-0.18	3.0%
86	CC1CCN(Cc2nc(-c3ccccc3)no2)CC1	i	-0.13	-0.2%
87	CCOC(=O)c1ccccc1NC(=O)Cn1cnc2c(cnn2C(C)(C)C)c1=O	i	-0.3	1.3%
88	COc1ccc(C(=O)O)cc1S(=O)(=O)Nc1cccc(C(F)(F)F)c1	i	-0.42	1.2%
89	O=C(O)c1cc(CN2CCOCC2)oc1-c1ccccc1	i	0.53	-1.8%
90	Cc1cc(-c2ccco2)c(C#N)c2nc3ccccc3n12	i	0.93	29%
91	CC(C)n1c(Sc2nccn2C)nc2c1c(=O)n(C)c(=O)n2C	i	-1.3	4.9%
92	CCCc1nc(SCc2ccc(Cl)cc2Cl)n[nH]1	i	nt	-2.2%
93	CC1CCN(CC(=O)N2CC(=O)Nc3ccccc32)CC1	i	nt	2.6%
94	CCC(Sc1nc2sc(C(=O)OC)c(C)c2c(=O)n1N)C(=O)N(CC)CC (stereo unspecified)	i	nt	5.0%
95	COc1ccc(CCNc2nc(=O)[nH]nc2C)cc1OC	i	-0.59	-2.1%
96	CCOC(=O)c1c(NC(=O)Cc2cccs2)sc(C(=O)N2CCCCC2)c1C	i	-0.65	-1.8%
97	C/C(=C1\SC(N2CCOCC2)=NC1=O)c1ccc(C)cc1	i	1.3	1.2%
98	O=C(CCN1CCc2ccccc2C(c2ccccc2)C1)c1ccc2c(c1)OCCO2 (stereo unspecified)	i	nt	1.7%
99	CCc1[nH]nc2c1C1(CCOC1C)C(C#N)=C(N)O2 (stereo unspecified)	i	0.15	-3.5%
100	CCN(CC)c1nc(C)c(C(C)=O)cc1C#N	i	nt	1.6%

# Two entries from above, screen by screen:
95. COc1ccc(CCNc2nc(=O)[nH]nc2C)cc1OC
96. CCOC(=O)c1c(NC(=O)Cc2cccs2)sc(C(=O)N2CCCCC2)c1C
assay / compound	95	96
MT1-MMP promoter	i	i
WNV protease inh	-0.59	-0.65
Hsc70 ATP site	-2.1%	-1.8%

# (continued)
entry	Compound	MT1-MMP promoter	WNV protease inh	Hsc70 ATP site
101	O=C(Nc1scc(-c2ccccc2)c1C(=O)O)c1ccco1	i	0.08	-3.7%
102	O=c1[nH]c(-c2ccccc2)c(-c2ccccc2)[nH]1	i	-0.19	-1.3%
103	N#Cc1nc(COc2ccccc2)oc1N1CCN(c2cccc(Cl)c2)CC1	i	0.93	-4.4%
104	O=C(NCc1ccco1)c1scc2c1OCCO2	i	-0.24	3.8%
105	O=C(CSc1nnc(-c2cccnc2)o1)OC1CCCCC1	i	-0.29	-6.7%
106	COC(=O)c1ccc(COc2nc(C)cc(C)c2C#N)o1	i	2.4	-0.2%
107	COc1cccc(NC(=O)CSc2nnc(Cn3c(=O)sc4ccccc43)n2C)c1	i	0.75	2.3%
108	COc1ccc(OC)c(NC(=O)c2ccc(NC(C)=O)cc2)c1	i	-0.4	-3.4%
109	CN(C(=O)CSc1nc(N)nn1-c1ccccc1)c1ccccc1	i	2	0.7%
110	O=C(CSc1nnc(-c2ccccc2)o1)Oc1ccc(Br)cc1	i	nt	-1.3%
111	CCOc1ccc(-c2noc(CCCC(N)=O)n2)cc1OC	i	nt	-1.3%
112	Cn1c(=O)cc(OCC(=O)NCc2cccnc2)c2ccccc21	i	1.1	11%
113	O=c1ccc(/C=C/c2ccccc2)nn1Cc1ccc(Cl)cc1Cl	i	nt	3.5%
